Screening data deposited in PubChem by several laboratories.
Calb FLC – C. albicans growth inhibition with fluconazole, primary screen, CaCi-2 strain, Alamar Blue fluorescence | 300,000 compounds, 0.57% hits | AID 1979, 2009 | C. albicans CaCi-2 (fluconazole-resistant clinical isolate) + fluconazole, 48 h | growth inhibition, % (concentration not given with the values);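 active = most replicates above 75%; inconclusive = exactly half above 75%; inactive = most below 75%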;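 also: all wells also contain fluconazole at 8 µg/ml as a sub-toxic cotreatment; 0% = median of DMSO wells and 100% = median of geldanamycin control wells; wells of about 8 µL received 7.5 nL stock; the first replicate is given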
Bfl-1 A1 inh – caspase 3/7 activation in MEF A1-2A-BIM cells, primary screen, A1 inhibitor project, cell-based, luminescence, HTS | Caspase-Glo 3/7 luminescence, 3 h; percent of clofoctol response, vehicle zero | 330,000 compounds, 0.066% hits | caspase activation, % (no concentration beside the values);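 active = over half of replicate activation scores above 10%, or exactly half above 10 with the replicate mean above 10; inconclusive = replicate mean below 10 yet half the replicates above 10; inactive = over half of replicates below 10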;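 also: wells of about 30 µL received 50 nL stock; many hits fall short of the cut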
Beta cell apopt – inhibitors of cytokine-induced beta cell apoptosis, primary screen, luminescence; protection from apoptosis, % (concentration not given with the values); AID 435005, 2010; INS-1E cytokine-induced death, ATP luminescence, 48 h; percent of positive-control rescue, neutral wells zero; 300,000 compounds, 0.8% hits;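 active = all replicates at 75% or more, or half of them and the mean; inconclusive = half reach 75% but not the mean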;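 also: 0% = cytokine-treated negative control wells and 100% = positive control rescue; higher means more ATP so stronger rescue from cytokine killing; wells of about 40 µL received 100 nL stock; the first replicate is given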
T cruzi repl – inhibitors of intracellular T. cruzi growth, primary screen, luminescence, NIH3T3 host cells. T. cruzi beta-gal in NIH3T3, 90 h. inhibition, % (test concentration not listed). 300,000 compounds, 1.4% hits. AID 1885, 2009;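 active = mean inhibition across valid replicates above about 55%, limit read from the data; inconclusive = mean below that limit but half or more replicates reach it; inactive = mean below it, under half of replicates reach it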;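 also: signal also drops with host cell toxicity which is not excluded here; 0% = plate median of DMSO wells and 100% = zero luminescence signal; higher percent means less beta-gal luminescence so fewer parasites; stock transfer was 50 nL into about 50 µL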
RanGTP-Impb inh – inhibitors of RanGTP-importin-beta interaction, primary screen, biochemical, FRET, CFP-Ran, YFP-importin-beta, homogeneous; Ran GTPase (GTP-bound) - importin-beta complex; AID 2216, 2009; cell-free CFP-Ran/YFP-importin-beta FRET ratio; 300,000 compounds, 1.1% hits; inhibition, % (concentration not given with the values);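 active = most replicates above 15%; inconclusive = exactly half above 15%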;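 also: 0% = DMSO wells and 100% = Ran loaded with GDP instead of GTP; wells of about 40 µL received 100 nL stock; the first replicate is given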
LANA-H2B inh – blockers of LANA interaction with H2A/H2B – biochemical, FP readout, HTS, primary screen | 320,000 compounds, 0.6% hits | cell-free LANA-H2A/H2B peptide, fluorescence polarization | inhibition, % (concentration not given with the values) | AID 2629, 2010; in the data active = inhibition mostly above about 10%, no sharp cut-off; inactive = mostly below about 6.7%;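 also: stock transfer was 7.5 nL into about 10 µL; 0% = median of vehicle wells and 100% = median of positive control wells; one replicate is shown; the record names a cut of 25% in any replicate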
Target sequence (Q9QR71 whole entry, looked up): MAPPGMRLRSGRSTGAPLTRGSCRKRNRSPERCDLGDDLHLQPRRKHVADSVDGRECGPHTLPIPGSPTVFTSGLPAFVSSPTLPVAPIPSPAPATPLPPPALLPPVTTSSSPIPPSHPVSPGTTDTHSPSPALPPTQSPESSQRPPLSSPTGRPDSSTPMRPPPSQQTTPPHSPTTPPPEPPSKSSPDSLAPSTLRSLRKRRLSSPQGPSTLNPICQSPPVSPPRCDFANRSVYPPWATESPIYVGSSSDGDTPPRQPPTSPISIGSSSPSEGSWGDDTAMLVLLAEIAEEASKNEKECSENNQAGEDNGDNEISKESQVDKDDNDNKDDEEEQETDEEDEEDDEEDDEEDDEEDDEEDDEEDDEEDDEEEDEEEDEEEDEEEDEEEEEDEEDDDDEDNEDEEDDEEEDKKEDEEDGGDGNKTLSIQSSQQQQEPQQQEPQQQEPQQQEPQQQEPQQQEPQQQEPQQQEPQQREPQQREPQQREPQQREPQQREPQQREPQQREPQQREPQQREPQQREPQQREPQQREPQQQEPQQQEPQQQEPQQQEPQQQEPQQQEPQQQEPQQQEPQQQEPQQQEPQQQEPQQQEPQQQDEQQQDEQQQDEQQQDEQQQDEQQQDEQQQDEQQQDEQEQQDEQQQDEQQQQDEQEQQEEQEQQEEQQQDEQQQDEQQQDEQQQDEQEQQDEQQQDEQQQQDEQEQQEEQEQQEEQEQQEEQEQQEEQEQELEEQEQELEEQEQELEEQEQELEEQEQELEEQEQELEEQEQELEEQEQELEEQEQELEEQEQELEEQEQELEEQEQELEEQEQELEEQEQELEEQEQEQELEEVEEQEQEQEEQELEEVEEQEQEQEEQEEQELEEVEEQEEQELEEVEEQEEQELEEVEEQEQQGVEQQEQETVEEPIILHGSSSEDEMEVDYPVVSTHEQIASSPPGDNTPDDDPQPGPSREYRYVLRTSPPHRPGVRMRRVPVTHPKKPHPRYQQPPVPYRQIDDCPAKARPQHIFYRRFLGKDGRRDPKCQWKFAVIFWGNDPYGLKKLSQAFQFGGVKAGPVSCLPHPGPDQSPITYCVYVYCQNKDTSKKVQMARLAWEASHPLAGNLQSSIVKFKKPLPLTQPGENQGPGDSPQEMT
AF4-AF9 inh – inhibitors of AF4 peptide binding to AF9, primary screen, biochemical, AlphaScreen, biotin-AF4 peptide, FLAG-AF9, single point. Protein AF-9 (Homo sapiens), P42568. inhibition, % at 10 µM. 350,000 compounds, 0.47% hits. AID 651704, 2012;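 active = every replicate reaching a set inhibition limit, whatever the replicate mean, cut at about 25% in these data; inconclusive = mean inhibition reaches that limit but some replicates miss it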;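 also: 0% = plate neutral control median and 100% = total signal loss; the record names both 10 and 1 µM as test concentration; the first replicate is given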
Vif TR-FRET – inhibitors of Vif binding to APOBEC3G peptide, primary screen, biochemical, TR-FRET, GST-Vif 1-94, biotin-A3G peptide, dose response retest (AID 1117319); Virion infectivity factor (Human immunodeficiency virus type 1 group M subtype B (isolate …; TR-FRET GST-Vif / biotin-A3G peptide binding; higher % means a stronger effect; test concentration not given here; strong numbers were not always called active; one-dose inhibition, %; IC50 in µM for titrated hits; 260,000 compounds, 0.57% hits;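 active = above the screen mean plus three standard deviations and confirmed in dose response; inconclusive = results disagree or hit not tested in dose response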;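 also: Vif residues 1-94 fused to GST binding biotinylated APOBEC3G peptide 110-148; 0% = full assay without inhibitor and 100% = GST in place of GST-Vif; retest series ran down from 100 µM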
Numbers without * were called inactive; ? = inconclusive; . = no result given; & = joins results of further samples. Outcome played no part in choosing rows; 4.3% or so of the library scored in one or more.

SMILES	Calb FLC	Bfl-1 A1 inh	Beta cell apopt	T cruzi repl	RanGTP-Impb inh	LANA-H2B inh	AF4-AF9 inh	Vif TR-FRET
Cn1ccnc1SCc1cccc([N+](=O)[O-])c1	-1	0.8	.	-5	-2.6	-7.4	3.6	.
CCOC(=O)c1c(NC(=O)CSc2nnc(CNc3ccc(C)cc3C)o2)sc(C)c1C	0	0.1	-11	-2	-0.5	-4.7	.	.
Cc1nccc(-c2ccc3c(c2)OCO3)n1	-1	-1.4	-2	-12	2.0	-1.7	-2.5	-8%
O=C(CSc1nnc2ccccn12)NC(=O)Cc1ccccc1	9	0.4	.	-8	-1.4	4.1	-2.9	.
O=C(NCc1ccccc1C(F)(F)F)C1CCC(=O)N(C2CCCCCC2)C1 (stereo not drawn)	-4	0.7	-2	0	-2.4	3.0	0.3	.
CC(CCc1ccccc1)NC(=O)CSc1ccccn1 (stereo not drawn)	6	-0.3	-1	-6	11	3.5	-3.7	3%
CC(=O)N1CCN(C(=O)Cn2c(=O)oc3ccccc32)CC1	-9	0.6	-1	-16	-2.5	-2.9	.	1%
CC(=O)Nc1ccc(S(=O)(=O)N2CCC(C(=O)O)(c3ccccc3)CC2)cc1	-6	0.3	-6	-10	1.6	2.5	3.5	.
O=C(CCc1nnc(CCC2CCCCC2)o1)NCc1ccon1	0	-0.7	1	-6	2.7	-7.3	-0.6	-6%
COc1ccccc1NNC(=O)c1cc(C(C)(C)C)nn1Cc1ccccc1	17	-0.6	-1	29	2.6	13	2.1	-8%
Cc1cc(O)ccc1Nc1nc(-c2sc(N)nc2C)cs1	38	-0.9	-5	.	0.4	2.3	.	15%
O=[N+]([O-])c1cc([N+](=O)[O-])c(Oc2cc(Cl)ccc2Cl)cc1NC1CCCCCCC1	-1	-1.2	4	-16	2.3	5.8	.	.
O=C(NCCc1ccccc1)C1CCCN1C(=O)Nc1ccccc1 (stereo not drawn)	-2	-0.5	.	-10	8.1	-0.6	-1.7	.
CN(C(=O)c1cc2sccc2n1C)C1CCCCC1	-27	0.6	4	1	-0.5	-3.1	.	21%
c1ccc(CNc2nc(NCc3ccco3)nc(N3CCOCC3)n2)cc1	-33	-0.2	6	16	-0.7	-2.6	8.0	-4%
COc1ccccc1CNC(=O)C(=O)NCC1OCCN1C(=O)c1ccc(Cl)cc1 (stereo not drawn)	6	0.0	-1	-1	1.3	-2.5	3.6	-5%
O=C(Cn1cnc(S(=O)(=O)N2CCOCC2)c1)Nc1ccc(OC(F)(F)F)cc1	5	.	.	-13	-0.4	.	-3.3	.
COc1cc(NC(=O)C(=O)N2CCN(C)CC2)c(OC)cc1Cl	-5	-0.1	60	-6	0.0	4.2	-1.6	-7%
COC(=O)c1c(NC(=O)CN2CCCc3ccccc32)sc(C)c1C	4	-0.1	-3	39	9.1	8.3	-2.4	.
CC1CCN(S(=O)(=O)c2cc([N+](=O)[O-])ccc2Cl)CC1	-10	-0.5	1	35	-1.0	1.7	12	.
CCN(CC)CCCn1c2c(c(SCC(=O)N3CCCc4ccccc43)nc1=O)CCC2	1	0.6	0	-9	0.8	1.4	-2.9	.
c1ccc(-c2ccnc3nc(-n4cccc4)nn23)cc1	0	-0.2	-1	4	2.5	-3.5	.	?
Cc1nnc(SCC(=O)Nc2nc3ccccc3s2)n(N)c1=O	11	-0.5	-7	-14	5.3	3.9	4.3	.
CN(CC(=O)O)S(=O)(=O)c1cc(Cl)ccc1Cl	9	0.8	0	-12	-1.4	-3.5	-43	-2%
CCc1c(O)cc(=O)n(-c2ccccc2)c1-c1ccccc1	2	-0.3	0	0	-0.5	7.2	-1.6	17%
COc1ccc(-c2c(-c3ccsc3)oc3ccc(N4CCOCC4)cc23)cc1	10	0.1	-9	28	-5.9	-10	6.0	.
COc1ccc(-c2nnc(SCC(=O)N3CCOCC3)o2)cc1	12	0.1	0	2	-0.2	-0.7	.	5%
Cc1nn(-c2ccccc2)c2sc(C(=O)n3cccn3)cc12	2	-0.2	-3	-12	2.2	-4.3	.	.
Cc1ccn2c(-c3n[nH]c(=S)n3C)c(C)nc2c1	9	-0.3	-3	-13	1.5	-2.1	.	19%
Cn1c(=O)c2c(nc(SCC(=O)c3ccccc3F)n2C)n(C)c1=O	-1	0.4	1	-3	?	-3.4	.	2%
COC(=O)c1cc(CNC(=O)c2ccccc2Cl)ccc1OC	14	0.2	2	-22	-0.8	3.5	-1.9	.
CC(Oc1ccc(Br)cc1)C(=O)Nc1nc(-c2ccccn2)cs1 (stereo not drawn)	-4	0.3	.	69*	-3.6	0.5	2.0	.
CCN(CC(=O)Nc1ccccc1C(F)(F)F)C(=O)CSCc1c(C)noc1C	-2	-0.9	4	-6	.	-0.7	3.4	-3%
CCOCCN1CCN(C2c3ccccc3CSc3ccccc32)CC1 (stereo not drawn)	0	0.2	-6	32	4.2	4.5	11	.
Cc1ccccc1-c1nc2c3ccccc3nc(=S)n2[nH]1	12	-1.1	19	20	-2.4	-2.3	-1.5	-15%
Cc1nn(-c2ccccc2)nc1CNS(C)(=O)=O	-4	0.9	.	21	8.1	-2.3	2.0	-5%
CC(=O)Nc1nnc(SCC(=O)NC2CC2)s1	1	1.7	0	8	-3.7	-10	0.7	.
O=C1CCC(C(=O)Nc2ccc(Cl)cc2)N1 (stereo not drawn)	-1	0.6	.	11	-1.5	-0.2	-1.6	.
COc1ccccc1C(=O)NC(CCSC)C(=O)N1CCN(C(C)=O)CC1 (stereo not drawn)	.	0.6	4	.	.	-2.1	3.3	-3%
CCSCCOC(=O)C1=C(C)NC(=O)NC1c1ccccc1 (stereo not drawn)	5	-0.5	-3	-7	0.6	-2.5	1.8	-3%
O=C(NC(=S)Nc1cccc2ncccc12)c1ccco1	23	0.0	-3	-8	5.1	3.2	-3.1	-2%
COc1ccc(NC(=O)C2CCN(Cc3cnn(-c4ccccc4)c3-n3cccc3)CC2)cc1OC	-3	0.8	2	16	-4.3	0.8	.	?
Cc1ccc(S(=O)(=O)N2CCN(C(=O)n3ccnc3)CC2)cc1	.	-0.7	1	.	.	31*	-1.3	-12%
C[C@H](CO)N1C[C@H](C)[C@@H](CN(C)Cc2ccc(Cl)c(Cl)c2)Oc2c(NC(=O)C3CCOCC3)cccc2C1=O	.	0.5	1	.	.	-8.6	-1.6&-0.8	-1%
CC(C)CC(O)(c1ccccc1)C(CN1CCOCC1)c1ccccc1 (stereo not drawn)	-1	0.1	-4	-8	1.9	3.3	-0.7	-1%
COc1ccc2c(=O)c(C(=O)O)c(-c3ccc4c(c3)OCO4)n(C)c2c1	-1	0.6	2	-2	0.5	-1.8	.	-8%
Cc1csc(NC(=O)c2ccc(C)c([N+](=O)[O-])c2)n1	-2	-4.0	2	-17	-0.8	-6.3	.	?
Cc1ccc(C(NC(=O)Nc2ccccn2)C(Cl)(Cl)Cl)cc1F (stereo not drawn)	-3	-0.8	0	17	2.6	-1.0	-0.2	.
COCCn1c(N)c(C(=O)c2cccc(S(=O)(=O)N3CCCCCC3)c2)c(=O)[nH]c1=O	.	0.3	-2	.	.	3.2	-20	3%
CC(C)CN(C(=O)CN1C(=O)NC(c2ccccc2)(c2ccccc2)C1=O)C1CCS(=O)(=O)C1 (stereo not drawn)	.	-0.7	-1	.	.	2.0	2.4	-5%
CC1Sc2ccc(S(=O)(=O)CCC(=O)N3CCCC3)cc2NC1=O (stereo not drawn)	-4	0.4	-11	-7	1.3	-1.8	1.8	.
CCNC(=S)NCc1ccc(OC)c(OC)c1	-6	0.0	-8	-11	-4.7	-0.3	-2.6	3%
COc1ccc(C2=NOC(Cn3nc(-c4ccccc4)cc3C(=O)NCc3cccc(Br)c3)C2)cc1 (stereo not drawn)	.	0.1	2	.	.	0.1	-19	.
Cc1ccc(S(=O)(=O)NCCC(=O)NC2CCCCC2)cc1	.	-0.1	-3	.	.	3.0	-12	0%
COc1cccc(NC(=O)COC(=O)Cc2ccccc2[N+](=O)[O-])c1	-3	0.7	3	-26	-2.3	2.5	-1.1	22%
Clc1ccc(SCCCCN2CCOCC2)cc1	-2	0.0	-11	15	-2.9	0.8	.	12%
COC(=O)c1ccc(OC)c(-c2c(OC)cc(OC)cc2OC)c1	-4	1.3	4	-9	0.8	0.2	3.0	-2%
O=C(CSc1nn(-c2ccc(F)cc2)c(=S)s1)NC(=O)NCc1ccco1	2	-0.3	-8	5	-2.9	-0.6	.	3%&29%
COc1ccc(C)cc1S(=O)(=O)N1CCC(C(=O)N2CCN(C)CC2)CC1	-10	-0.1	-5	2	4.6	1.1	.	.
COc1cc(NC(=O)COC(=O)/C=C/c2c(C)nn(C3CCS(=O)(=O)C3)c2Cl)cc(OC)c1OC (stereo not drawn)	10	1.7	-7	-3	3.0	-0.9	.	-6%

The listing continues:
SMILES	Calb FLC	Bfl-1 A1 inh	Beta cell apopt	T cruzi repl	RanGTP-Impb inh	LANA-H2B inh	AF4-AF9 inh	Vif TR-FRET
COc1ccc(/C=C/CN2CCC(Oc3ccc(C(=O)N4CCCCC4)cc3)CC2)cc1	-2	-0.6	.	24	-3.8	0.6	4.4	4%
O=C(CN1C(=O)COc2ccccc21)N(CCCN1CCOCC1)CC1CC=CCC1 (stereo not drawn)	9	0.0	7	-3	4.3	6.0	-11	-1%
Cc1nc2ccccc2c(=O)n1-c1ccc(F)c(NS(=O)(=O)c2ccccc2F)c1	33	0.3	-5	-17	0.7	0.0	2.2	-7%
Cc1ccccc1C(=O)NC(CC(C)C)C(=O)Nc1ccc(S(N)(=O)=O)cc1 (stereo not drawn)	10	0.3	-2	-9	1.5	-2.7	1.0	-4%
c1ccc2[nH]c(N3CCOCC3)nc2c1	9	1.0	-7	-4	0.1	0.6	.	2%
C#CCOCCOCCOCCNc1nc(N2CCOCC2)nc(N2CCN(C(=O)[C@H](Cc3ccc(O)cc3)n3cc([C@@H](N)CC(C)C)nn3)CC2)n1	1	-0.2	-3	-11	?	3.2	9.2	30%
CCOc1ccc(CNC(=O)C2Cc3cc(S(=O)(=O)N4CCCCC4)ccc3N2C(C)=O)cc1 (stereo not drawn)	-6	0.1	.	5	1.5	-2.3	-3.1	.
Nc1ccc2nc3n(c(=O)c2c1)CCC3	13	-0.4	-4	5	?	6.4	1.1	?
CS(=O)(=O)N(CCc1ccccc1)CC(=O)Nc1ccc(OCc2ccccc2)cc1	25	0.0	13	13	6.1	-4.7	.	-7%
COC(=O)c1ccc2c(=O)n(CC3CCCO3)c(SCC(=O)Nc3ccccc3OC)nc2c1 (stereo not drawn)	1	0.6	.	3	-4.2	-1.7	.	-7%&-6%
CC(CC(=O)Nc1ccc(C(N)=O)cc1)c1ccccc1 (stereo not drawn)	-4	0.5	2	-9	-0.7	2.0	1.0	-8%
